MLL AF4-AF9 inh: inhibitors of AF4 peptide binding to AF9, primary screen, biochemical, AlphaScreen, biotin-AF4 peptide, FLAG-AF9, single point. inhibition, % at 10 µM. actives 0.47% (n = 350,000);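 active = every replicate reaching a set inhibition limit, whatever the replicate mean, cut at about 25% in these data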;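 also: 0% = plate neutral control median and 100% = total signal loss; the record names both 10 and 1 µM as test concentration; the first replicate is given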
Target sequence (P42568 whole entry, looked up): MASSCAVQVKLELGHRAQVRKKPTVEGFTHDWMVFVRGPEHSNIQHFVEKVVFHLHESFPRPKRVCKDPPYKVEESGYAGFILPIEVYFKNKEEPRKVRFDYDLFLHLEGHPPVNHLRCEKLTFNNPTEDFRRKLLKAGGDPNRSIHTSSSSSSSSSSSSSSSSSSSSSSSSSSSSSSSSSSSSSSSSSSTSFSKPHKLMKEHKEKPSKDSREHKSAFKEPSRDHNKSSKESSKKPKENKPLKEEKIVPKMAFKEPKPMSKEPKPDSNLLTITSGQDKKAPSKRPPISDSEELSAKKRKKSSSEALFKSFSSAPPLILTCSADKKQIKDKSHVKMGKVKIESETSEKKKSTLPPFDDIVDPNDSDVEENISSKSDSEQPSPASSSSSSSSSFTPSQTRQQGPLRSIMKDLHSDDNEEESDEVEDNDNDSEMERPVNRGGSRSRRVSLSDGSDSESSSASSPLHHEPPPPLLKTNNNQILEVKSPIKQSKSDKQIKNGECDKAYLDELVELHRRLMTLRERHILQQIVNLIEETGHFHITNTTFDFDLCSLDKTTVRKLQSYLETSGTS
FGF22 binding: binders of human FGF22 protein, primary screen, FGF22 synaptogenesis inhibitor project, biophysical, thermal shift, single point; Fibroblast growth factor 22 (Homo sapiens), Q9HCT0; recombinant FGF22 thermal shift, SYPRO orange fluorescence; percent of sucrose octasulfate shift, DMSO zero; actives 1.5% (n = 340,000); calls only at 9.99 µM;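 active = melting point raised past a set limit in the mean and every replicate; three in four hits are not shown here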
Target sequence (Q9HCT0 whole entry, looked up): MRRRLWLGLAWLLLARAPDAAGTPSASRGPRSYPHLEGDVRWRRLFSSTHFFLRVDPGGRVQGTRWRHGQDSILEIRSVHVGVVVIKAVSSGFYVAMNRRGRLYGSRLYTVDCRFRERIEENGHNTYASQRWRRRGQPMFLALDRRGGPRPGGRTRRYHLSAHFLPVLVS
rRNA inh HTS: reduced GFP signal of wild-type E. coli, primary screen, bacterial rRNA inhibitor project, GFP/RFP fluorescence, OD600, single point; actives 1.6% (n = 350,000); E. coli WT GFP vs humanized-ribosome RFP mutants, 24 h; hits give low values; DMSO median 0, no signal -100; GFP signal change (wild-type ribosome), % (concentration not given with the values);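 active = significant combined selectivity score with lowered wild-type GFP, culture density cut under 30%, mutant RFP and density less affected; inactive = any of these conditions unmet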; also: one replicate is shown; some compounds called inactive have numbers as strong as hits
rRNA inh HTS OD600: second read-out of rRNA inh HTS, no call of its own (marks repeat the call); OD600 change, %; measured here: OD600 growth;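 optical density of the mix in the first replicate; 0 = DMSO median and -100 = no signal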
rRNA inh HTS RFP: recorded beside rRNA inh HTS, whose call it bears; RFP signal change, %; measured here: RFP humanized mutant strains;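 first replicate; 0 = DMSO median and -100 = no signal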
The depositor's hits bear a star; i = inactive. Not all compounds are listed; rates above refer to the full screens.

SMILES | MLL AF4-AF9 inh | FGF22 binding | rRNA inh HTS | rRNA inh HTS OD600 | rRNA inh HTS RFP
CCC(=O)N1C[C@H](C)[C@@H](OC)CN(C)C(=O)c2cc(NC(=O)c3ccccc3)ccc2OC[C@H]1C | 2.9 | i | 0 | 0 | 2.6
O=C(C[C@H]1CC[C@@H]2[C@H](COC[C@@H](O)CN2Cc2cccc(C(F)(F)F)c2)O1)NCc1ccncc1 | -0.1 | i | -6 | -6 | 2.0
CO[C@H]1CN(C)C(=O)c2ccc(NC(=O)Nc3ccccc3)cc2OC[C@H](C)N(C(C)=O)C[C@@H]1C | -2.0 | i | 0 | -7 | -0.8
CCCC(=O)N1CC2(CN(S(C)(=O)=O)C2)c2c([nH]c3cc(OC)ccc23)[C@H]1CO | -0.2 | i | 3 | 0 | -1.2
CC(=O)Nc1cncc(-c2ccc(CN(C)C)cc2)n1 | -2.0 | i | 10 | 16 | 0.2
Cc1noc(C)c1NC(=O)N[C@@H]1C=C[C@@H](CC(=O)N2CCN(C)CC2)O[C@@H]1CO | -1.0 | i | 4 | 6 | -0.1
C[C@H](CO)N1C[C@H](C)[C@H](CN(C)C(=O)NC2CCCCC2)OCCCC[C@H](C)Oc2ccc(NC(=O)C3CCCCC3)cc2C1=O | 0.8 | i | -2 | -12 | 1.6
COc1ccccc1-c1ccc2c(c1)O[C@@H](CN(C)C(=O)c1cccnc1)[C@@H](C)CN([C@@H](C)CO)S2(=O)=O | -1.1 | i | -1 | 0 | 0.7
COCC(=O)Nc1ccc2c(c1)OC[C@@H](C)N(C(=O)c1cnccn1)C[C@H](C)[C@H](OC)CN(C)C2=O | -1.7 | i | 3 | -1 | -0.5
COc1ccc(S(=O)(=O)NC(=O)C2(C)CCN2C(=O)Cc2ccccc2Cl)cc1 (centres undefined) | -9.0 | i | 13 | 15 | 1.7
CC(C)(O)C#Cc1ccc([C@@H]2[C@@H](CO)N3CCCCN(C(=O)c4ccc(F)cc4)C[C@H]23)cc1 | -7.7 | i | 4 | -2 | -2.5
O=C(C[C@@H]1C[C@H]2c3cc(NC(=O)Nc4ccccc4F)ccc3O[C@H]2[C@H](CO)O1)NCc1ccncc1 | 3.2 | i | -3 | -4 | -2.0
C[C@@H]1CN([C@@H](C)CO)C(=O)Cc2cc(NC(=O)Nc3cccc4ccccc34)ccc2O[C@@H]1CN(C)C(=O)Nc1ccc(C(F)(F)F)cc1 | 0.3 | i | 5 | 7 | 0.2
C[C@H](CO)N1C[C@H](C)[C@H](CN(C)S(=O)(=O)c2ccc(Cl)cc2)Oc2ccc(NC(=O)Nc3cccc4ccccc34)cc2C1=O | 0.5 | i | 0 | 3 | -1.0
CCOC(=O)C1=CCN(S(=O)(=O)c2ccc(Cl)cc2)C1c1cccc(Br)c1 (centres undefined) | 0.9 | i | -8 | -35 | 0.3
CC(=O)N(C)C[C@@H]1Oc2cc(C#Cc3ccccn3)ccc2S(=O)(=O)N([C@@H](C)CO)C[C@H]1C | -2.1 | i | 1 | 4 | -0.4
CO[C@H]1CN(C)C(=O)c2cc(NS(=O)(=O)c3ccccc3)ccc2OC[C@H](C)N(C(=O)NC(C)C)C[C@H]1C | -12 | i | 0 | 3 | 0.0
C[C@@H]1CN([C@H](C)CO)C(=O)Cc2cc(NC(=O)C3CC3)ccc2O[C@@H]1CN(C)Cc1ccc(-c2ccccc2)cc1 | 0.3 | i | -5 | -36 | 13
CC(C)NC(=O)N[C@@H]1CC[C@@H](CCNS(=O)(=O)c2ccc(F)cc2)O[C@@H]1CO | -2.4 | i | 1 | 8 | 1.8
C/C=C/c1ccc2c(c1)O[C@H](CN(C)CC1CCOCC1)[C@H](C)CN([C@@H](C)CO)S2(=O)=O | -9.5 | i | 1 | 10 | -2.5
COc1ccc2c3c(n(C)c2c1)[C@@H](CO)N(Cc1cccc(Cl)c1)CC31CN(C(=O)C2CC2)C1 | 2.8 | i | -5 | -12 | -1.5
C[C@H]1CCCCO[C@H](CN(C)S(=O)(=O)c2cccs2)[C@@H](C)CN([C@@H](C)CO)C(=O)c2cc(NS(=O)(=O)c3cn(C)cn3)ccc2O1 | 1.4 | i | -3 | -2 | 1.4
O=C(C[C@H]1C[C@H]2c3cc(NC(=O)CC4CC4)ccc3O[C@H]2[C@@H](CO)O1)NCc1cccnc1 | -0.4 | i | -2 | 6 | -4.0
C[C@@H]1CN([C@H](C)CO)S(=O)(=O)c2ccc(-c3ccccc3)cc2O[C@@H]1CN(C)C(=O)C1CCCCC1 | 4.3 | i | -13 | -39 | 6.8
COc1ccc(CN(C)C[C@H]2Oc3ccc(NC(=O)Nc4ccccc4)cc3C(=O)N([C@@H](C)CO)C[C@@H]2C)cc1 | -7.8 | i | 5 | -4 | -0.2
CO[C@@H]1CN(C)C(=O)c2cc(NC(C)=O)ccc2OC[C@@H](C)N(CC2CC2)C[C@@H]1C | -0.6 | i | 0 | 1 | 0.1
COCCNC(=O)C1(C)CCCN(C(=O)c2ccccc2)C1 (centres undefined) | -3.2 | i | 6 | 12 | -4.5
S=C(NNC(=S)Nc1ccc(Cl)cc1)NNc1ccccc1 | -5.0 | i | 3 | -1 | 22
C[C@H]1CN([C@@H](C)CO)C(=O)Cc2cc(NC(=O)Cc3cn(C)c4ccccc34)ccc2O[C@@H]1CN(C)S(=O)(=O)c1cccs1 | -0.7 | i | -1 | 2 | 0.7
C[C@@H]1CCCCO[C@@H](CN(C)CC2CC2)[C@H](C)CN([C@H](C)CO)C(=O)c2cc(NC(=O)Nc3ccccc3)ccc2O1 | 20 | i | 3 | 0 | 2.5
COc1ccc(C(=O)Nc2cc(OC)c(NC(=O)Nc3ccccc3)cc2OC)cc1 | 6.9 | i | -12 | -16 | 2.0
C[C@H](NC(=O)[C@H]1[C@H](CO)[C@H]2Cn3c(ccc(-c4ccccc4F)c3=O)[C@@H]1N2C)c1ccccc1 | 1.9 | i | -1 | -2 | -3.9
FC(F)(F)c1cc(Cl)c2nc(-c3ccccc3)c(Cc3ccccc3)n2c1 | -0.1 | i | 8 | 10 | 1.0
CC(=O)N(C)C[C@H]1Oc2cc(C#CCC(C)C)ccc2S(=O)(=O)N([C@@H](C)CO)C[C@H]1C | 0.0 | i | -6 | -9 | -0.8
C[C@@H]1CN([C@@H](C)CO)C(=O)c2cccc(NC(=O)Nc3ccc(F)cc3)c2O[C@@H]1CN(C)S(=O)(=O)c1ccccc1 | -2.7 | i | 0 | -12 | -0.5
COc1ccc(CN2C(=O)CN(S(C)(=O)=O)CC2(C)C(=O)Nc2c(C)cccc2C)cc1 (centres undefined) | 1.6 | i | 8 | 13 | 2.1
C[C@@H]1CN([C@H](C)CO)C(=O)c2cc(C#CC3CCCC3)cnc2O[C@@H]1CN(C)Cc1ccncc1 | 3.9 | i | -1 | 6 | -1.1
O=C(C[C@@H]1C[C@@H]2c3cc(NC(=O)Cc4ccncc4)ccc3O[C@@H]2[C@H](CO)O1)NCc1cccc(F)c1 | 6.5 | i | 1 | 15 | -2.6
Cc1ccc(Cn2cc(CN3CC(N4CCN(CCN(C)C)CC4)CS3(=O)=O)nn2)cc1 (centres undefined) | -1.8 | i | 12 | 6 | 0.8
CC(C)CC#Cc1ccc2c(c1)O[C@H](CN(C)C(=O)Cc1ccccc1)[C@H](C)CN([C@H](C)CO)S2(=O)=O | -5.4 | i | -3 | -6 | 2.7
C/C=C/c1cnc2c(c1)C(=O)N([C@H](C)CO)C[C@@H](C)[C@H](CN(C)S(=O)(=O)c1ccc(OC)cc1)O2 | -1.6 | i | -4 | -5 | -1.8
CN1C(=O)c2cc(NC(=O)c3cnccn3)ccc2OC[C@@H]2O[C@H](CC(=O)O)CC[C@@H]21 | 0.6 | i | 0 | 3 | 0.3
O=C1NC[C@@H](CCCCN2C[C@H](Cc3ccc(O)cc3)N(CCC3CCCCC3)C(=O)C2=O)N(CCc2ccc(O)cc2)C1=O | -3.7 | i | -19 | -21 | 4.0
CC1(C(=O)Nc2ccc(F)c(Cl)c2)Cc2c(-c3ccc(C(N)=O)cc3)ccnc2O1 (centres undefined) | 0.0 | i | -9 | -20 | -0.7
C[C@@H]1CN([C@H](C)CO)C(=O)c2cc(C#CCc3ccccc3)cnc2O[C@H]1CN(C)Cc1ccc(C(=O)O)cc1 | 9.6 | i | 4 | -1 | -1.1
CC(C)C(N)c1csc(Nc2ccc(C(=O)NCCCO)cn2)n1 (centres undefined) | 2.2 | i | 4 | 11 | -1.0
COc1ccc(S(=O)(=O)N(C)C[C@@H]2Oc3ccc(NC(=O)Cc4ccccc4)cc3C(=O)N([C@@H](C)CO)C[C@@H]2C)cc1 | -1.7 | i | 0 | -5 | 1.8
CC(=O)N(C)C[C@H]1OCc2ccccc2-c2ccccc2C(=O)N([C@@H](C)CO)C[C@H]1C | -4.5 | i | 1 | 0 | -3.8
CC(C)(O)C#Cc1ccc(CNC[C@H]2O[C@@H](n3cnc4c(=O)[nH]c(N)nc43)[C@H](O)[C@@H]2O)s1 | 0.0 | i | 10 | 20 | -0.3
CCN(CC)C1Oc2cc3c(cc2C(c2cc(OC)c(OC)c(OC)c2)C1C)OCO3 (centres undefined) | -9.1 | i | -4 | 4 | 4.2
COc1ccc(NC(=O)Nc2ccc3c(c2)C(=O)N([C@@H](C)CO)C[C@H](C)[C@H](CN(C)C(=O)Cc2ccccc2)OCCCC[C@@H](C)O3)cc1 | 7.4 | i | 6 | -1 | 0.3
Cc1ccccc1S(=O)(=O)N[C@@H]1CC[C@H](CCn2cc(-c3ccccc3)nn2)O[C@@H]1CO | -3.8 | i | -1 | 1 | -3.4
COc1ccc(N2C(c3cc(OC)cc(OC)c3)=Cc3ccccc3C2CC(C)=O)cc1 (centres undefined) | -0.2 | i | -17 | -11 | 0.4
C[C@H](CO)N1C[C@H](C)[C@H](CN(C)S(=O)(=O)c2ccc(F)cc2)Oc2ccc(NC(=O)NC3CCCCC3)cc2CC1=O | 1.6 | i | 0 | 0 | -2.1
CC(=O)N1[C@H](C(=O)N2CCCCC2)[C@@H](CO)[C@@H]2Cn3c(ccc(C4=CCCC4)c3=O)[C@@H]21 | -1.3 | i | 5 | 14 | -0.8
COc1cccc(S(=O)(=O)N(C)C[C@H]2Oc3cc(C#CCN(C)C)ccc3S(=O)(=O)N([C@H](C)CO)C[C@@H]2C)c1 | 4.7 | i | -1 | -1 | -0.5
C[C@@H]1CN([C@H](C)CO)C(=O)c2cc(NC(=O)C3CCCCC3)ccc2O[C@@H](C)CCCCO[C@@H]1CN(C)C(=O)C1CCCCC1 | 0.4 | i | 2 | 3 | 0.8
O=C(C[C@H]1CC[C@H]2[C@@H](COC[C@H](O)CN2C(=O)c2cnccn2)O1)NCc1ccccc1 | -3.7 | i | 2 | -3 | -6.7
CCCNC(=O)N1C[C@@H]2[C@H](c3ccccc31)[C@@H](CO)N2C(=O)NCCC | -0.4 | i | 5 | 9 | -2.5
COCCNC(=O)[C@H]1[C@H](CO)[C@H]2Cn3c(ccc(-c4ccccc4OC)c3=O)[C@H]2N1C(=O)C1CCC1 | 0.0 | i | 0 | 0 | -2.5
CCCNC(=O)Nc1ccc2c(c1)C(=O)N(C)[C@H]1CC[C@H](CC(=O)NCC3CCCCC3)O[C@@H]1CO2 | 0.5 | i | -5 | -8 | 2.1
O=C(Nc1cccc(Cl)c1)N1C[C@H]2[C@@H](c3ccccc31)[C@@H](CO)N2C(=O)C1CCCC1 | 2.0 | i | -12 | -9 | 3.1

Among those listed so far, eight have a Cl atom:
SMILES | MLL AF4-AF9 inh | FGF22 binding | rRNA inh HTS | rRNA inh HTS OD600 | rRNA inh HTS RFP
COc1ccc(S(=O)(=O)NC(=O)C2(C)CCN2C(=O)Cc2ccccc2Cl)cc1 (centres undefined) | -9.0 | i | 13 | 15 | 1.7
C[C@H](CO)N1C[C@H](C)[C@H](CN(C)S(=O)(=O)c2ccc(Cl)cc2)Oc2ccc(NC(=O)Nc3cccc4ccccc34)cc2C1=O | 0.5 | i | 0 | 3 | -1.0
CCOC(=O)C1=CCN(S(=O)(=O)c2ccc(Cl)cc2)C1c1cccc(Br)c1 (centres undefined) | 0.9 | i | -8 | -35 | 0.3
COc1ccc2c3c(n(C)c2c1)[C@@H](CO)N(Cc1cccc(Cl)c1)CC31CN(C(=O)C2CC2)C1 | 2.8 | i | -5 | -12 | -1.5
S=C(NNC(=S)Nc1ccc(Cl)cc1)NNc1ccccc1 | -5.0 | i | 3 | -1 | 22
FC(F)(F)c1cc(Cl)c2nc(-c3ccccc3)c(Cc3ccccc3)n2c1 | -0.1 | i | 8 | 10 | 1.0
CC1(C(=O)Nc2ccc(F)c(Cl)c2)Cc2c(-c3ccc(C(N)=O)cc3)ccnc2O1 (centres undefined) | 0.0 | i | -9 | -20 | -0.7
O=C(Nc1cccc(Cl)c1)N1C[C@H]2[C@@H](c3ccccc31)[C@@H](CO)N2C(=O)C1CCCC1 | 2.0 | i | -12 | -9 | 3.1

Screening results from PubChem BioAssay.
